rRNA inh HTS – inhibits bacterial ribosomal RNA function over humanized ribosomes; 350,000 tested, 1.6% active; AID 720706; E. coli WT GFP vs humanized-ribosome RFP mutants, fluorescence, 24 h; hits give low values; DMSO median 0, no signal -100; GFP signal change (wild-type ribosome), % (test concentration not listed);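 active = significant combined selectivity score with lowered wild-type GFP, culture density cut under 30%, mutant RFP and density less affected; inactive = any of these conditions unmet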; also: one replicate is shown; some compounds called inactive have numbers as strong as hits
E coli growth – E. coli growth inhibition | 330,000 tested, 0.21% active | Escherichia coli growth, OD600, 23 h; hits give low values | OD600 absorbance (no concentration beside the values);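 active = OD600 absorbance below the run mean of sample wells minus 3.6 SD, in any replicate, cut at about 0.56 in these data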;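 also: stock transfer was 300 nL into about 60 µL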
T cruzi inh – T. cruzi replication inhibition; T. cruzi beta-gal in NIH3T3, luminescence, 90 h; inhibition, % (concentration not given with the values); 300,000 tested, 1.4% active;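 active = mean inhibition across valid replicates above about 55%, limit read from the data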;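 also: signal also drops with host cell toxicity which is not excluded here; 0% = plate median of DMSO wells and 100% = zero luminescence signal; higher percent means less beta-gal luminescence so fewer parasites; stock transfer was 50 nL into about 50 µL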
FGF22 binding – binders of recombinant human FGF22 by thermal shift; 340,000 tested, 1.5% active; calls only at 9.99 µM; SYPRO orange fluorescence; percent of sucrose octasulfate shift, DMSO zero;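 active = melting point raised past a set limit in the mean and every replicate; three in four hits are not shown here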
Target sequence (Q9HCT0 whole entry, looked up): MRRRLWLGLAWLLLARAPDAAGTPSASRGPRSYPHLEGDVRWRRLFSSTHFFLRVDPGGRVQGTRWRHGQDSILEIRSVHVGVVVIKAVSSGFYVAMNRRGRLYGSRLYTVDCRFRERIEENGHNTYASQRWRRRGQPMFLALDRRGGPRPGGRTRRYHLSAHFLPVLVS
Beta apoptosis – blocks beta cell apoptosis; INS-1E cytokine-induced death, ATP luminescence, 48 h; percent of positive-control rescue, neutral wells zero; protection from apoptosis, % (no concentration beside the values); 300,000 tested, 0.8% active;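 active = all replicates at 75% or more, or half of them and the mean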;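 also: 0% = cytokine-treated negative control wells and 100% = positive control rescue; higher means more ATP so stronger rescue from cytokine killing; wells of about 40 µL received 100 nL stock; the first replicate is given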
UCH37 inh – human UCH37 deubiquitinating enzyme inhibition; Q9Y5K5; purified proteasome/UCH37, Ub-AMC cleavage fluorescence; inhibition, % (concentration not given with the values); 330,000 tested, 0.33% active;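 active = mean of two replicates above 20%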;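 also: 0% = compound-free wells with enzyme and 100% = wells lacking proteasome; stock transfer was 100 nL into about 20 µL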
Target sequence (Q9Y5K5 whole entry, looked up): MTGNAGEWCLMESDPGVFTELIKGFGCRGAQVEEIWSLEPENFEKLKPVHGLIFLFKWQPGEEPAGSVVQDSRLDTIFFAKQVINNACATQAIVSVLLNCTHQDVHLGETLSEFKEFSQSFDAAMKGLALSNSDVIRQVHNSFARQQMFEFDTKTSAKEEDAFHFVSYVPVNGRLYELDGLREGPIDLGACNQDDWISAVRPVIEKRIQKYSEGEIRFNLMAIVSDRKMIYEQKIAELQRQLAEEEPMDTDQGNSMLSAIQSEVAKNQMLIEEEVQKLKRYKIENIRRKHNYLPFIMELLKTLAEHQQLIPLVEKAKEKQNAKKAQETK
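Material: Human UCH37 enzyme supplied as purified proteasome complex | Schedule: 30 min compound-proteasome preincubation then 25 min substrate reaction, room temperature | Detection: AMC fluorescence from Ub-AMC cleavage, excitation 355 nm, emission 460 nm | Benchmarks: Wells without proteasome as full block, compound-free enzyme plus substrate as uninhibited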
A1 inh – inhibitors of the anti-apoptotic protein A1, read as caspase activation | MEF A1-2A-BIM cells, Caspase-Glo 3/7 luminescence, 3 h; percent of clofoctol response, vehicle zero | caspase activation, % (no concentration beside the values) | 330,000 tested, 0.066% active | AID 2462;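 active = over half of replicate activation scores above 10%, or exactly half above 10 with the replicate mean above 10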;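 also: wells of about 30 µL received 50 nL stock; many hits fall short of the cut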
MLL AF4-AF9 inh – MLL-AF4/AF9 protein interaction inhibition; AlphaScreen, biotin-AF4 peptide binding to FLAG-AF9; inhibition, % at 10 µM; 350,000 tested, 0.47% active; AID 651704;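 active = every replicate reaching a set inhibition limit, whatever the replicate mean, cut at about 25% in these data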;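 also: 0% = plate neutral control median and 100% = total signal loss; the record names both 10 and 1 µM as test concentration; the first replicate is given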
Target sequence (P42568 whole entry, looked up): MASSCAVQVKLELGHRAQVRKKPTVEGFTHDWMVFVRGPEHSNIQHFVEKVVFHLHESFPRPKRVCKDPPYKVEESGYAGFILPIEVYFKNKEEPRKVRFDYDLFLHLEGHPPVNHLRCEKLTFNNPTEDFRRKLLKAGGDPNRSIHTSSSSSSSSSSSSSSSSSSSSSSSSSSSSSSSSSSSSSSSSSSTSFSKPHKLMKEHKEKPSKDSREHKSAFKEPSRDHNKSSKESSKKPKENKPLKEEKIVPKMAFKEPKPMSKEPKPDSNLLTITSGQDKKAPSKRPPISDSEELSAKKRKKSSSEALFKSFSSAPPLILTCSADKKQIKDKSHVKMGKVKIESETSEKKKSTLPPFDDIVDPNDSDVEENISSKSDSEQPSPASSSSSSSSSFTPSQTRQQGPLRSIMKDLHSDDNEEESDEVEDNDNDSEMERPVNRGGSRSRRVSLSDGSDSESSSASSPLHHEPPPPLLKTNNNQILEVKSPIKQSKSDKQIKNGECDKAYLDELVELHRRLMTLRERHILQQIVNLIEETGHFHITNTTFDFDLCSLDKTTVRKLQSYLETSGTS
rRNA inh HTS OD600 – also measured in rRNA inh HTS; calls as there; OD600 change, %; measured here: OD600 growth;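 optical density of the mix in the first replicate; 0 = DMSO median and -100 = no signal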
rRNA inh HTS RFP – also measured in rRNA inh HTS; calls as there; RFP signal change, %; measured here: RFP humanized mutant strains;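 first replicate; 0 = DMSO median and -100 = no signal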
* hit, by the source's call; & = joins results of further samples. An excerpt. The share of hits here may be higher or lower than overall.

For Cc1cc(/C=C2\SC(=S)NC2=O)c(C)n1-c1ccc(O)cc1 the results were rRNA inh HTS -24.2*, E coli growth 0.664, T cruzi inh -1.2, FGF22 binding inactive, Beta apoptosis 5.8, UCH37 inh 3.9, A1 inh -0.7, MLL AF4-AF9 inh 7.1, rRNA inh HTS OD600 -10.8* and rRNA inh HTS RFP -5.9*.
O=C1C=C(c2ccccc2)OC2(CCCC2)O1 was read as E coli growth 0.725, T cruzi inh 4.0, Beta apoptosis -5.5, UCH37 inh -1.8 and A1 inh 0.6.
Screening CC1(C)CN=c2s/c(=C\c3ccc(Cl)cc3)c(=O)n2C1 returned rRNA inh HTS -6.8, T cruzi inh 15.9, Beta apoptosis -3.1, A1 inh 0.6, MLL AF4-AF9 inh 1.8, rRNA inh HTS OD600 -15.1 and rRNA inh HTS RFP 4.9.
Screening C#Cc1cccc(NC(=O)c2ccc3c(c2)C(=O)N(Cc2cccnc2)C3=O)c1 returned rRNA inh HTS 2.3, E coli growth 0.665, T cruzi inh -18.9, FGF22 binding inactive, Beta apoptosis -4.2, UCH37 inh 3.6, A1 inh 0.3, MLL AF4-AF9 inh -4.3, rRNA inh HTS OD600 7.4 and rRNA inh HTS RFP 0.7.
`CC(=O)C1C(c2ccc3ncccc3c2)NC(=O)NC1(O)C(F)(F)F` (centres undefined) gave rRNA inh HTS 12.3, E coli growth 0.732, FGF22 binding inactive, Beta apoptosis -8.5, UCH37 inh 3.9, A1 inh -0.1, MLL AF4-AF9 inh -2.8, rRNA inh HTS OD600 5.2 and rRNA inh HTS RFP -2.4.
`CC(=O)c1cc(C(=O)Nc2ccc3ccccc3c2)c(C)o1` gave rRNA inh HTS -4.4, E coli growth 0.647, T cruzi inh -1.8, FGF22 binding inactive, Beta apoptosis -1.5, UCH37 inh -15.2, A1 inh -0.4, MLL AF4-AF9 inh 2.2, rRNA inh HTS OD600 1.7 and rRNA inh HTS RFP 4.9.
`O=C(/C=C/c1ccccc1)N/C(=C\c1ccco1)C(=O)O` gave rRNA inh HTS 12.0, E coli growth 0.66, T cruzi inh -12.6, FGF22 binding inactive, Beta apoptosis 2.9, UCH37 inh 6.4, A1 inh -0.4, MLL AF4-AF9 inh -0.1, rRNA inh HTS OD600 8.2 and rRNA inh HTS RFP 2.9.
CC1=C(Nc2ccc(C(=O)O)cc2)C(=O)c2ccccc2C1=O was read as rRNA inh HTS -7.3, E coli growth 0.68, T cruzi inh -13.2, FGF22 binding inactive, Beta apoptosis -18.4, UCH37 inh 8.3, A1 inh -4.2, MLL AF4-AF9 inh -1.4, rRNA inh HTS OD600 -13.6 and rRNA inh HTS RFP 10.3.
Screening CCCc1cc(=O)oc2cc(OCc3nn[nH]n3)ccc12 returned E coli growth 0.723, T cruzi inh -3.2, Beta apoptosis -3.0, UCH37 inh -56.7 and A1 inh -0.2.
`C=CCNC(=O)c1ccc(-c2ccc([N+](=O)[O-])cc2)o1` gave rRNA inh HTS -1.3, T cruzi inh -14.8, FGF22 binding inactive, Beta apoptosis 3.9, A1 inh 0.5, MLL AF4-AF9 inh 1.0, rRNA inh HTS OD600 -8.5 and rRNA inh HTS RFP -1.4.
Cc1ccc(C(=O)N2CCN(C3c4cccc5cccc(c45)C3NS(=O)(=O)c3ccccc3)CC2)cc1 (centres undefined) was read as E coli growth 0.769, T cruzi inh 36.0, Beta apoptosis 17.7, UCH37 inh 3.3 and A1 inh 0.1.
Screening CN(C(=S)Nc1ccc(Oc2ccccc2)cc1)c1ccc(O)cc1 returned E coli growth 0.644, T cruzi inh 41.4, Beta apoptosis -14.7, UCH37 inh 5.8 and A1 inh 0.9.
For CCOC(=O)C1(Cc2ccccc2C(F)(F)F)CCN(C2CCN(C(C)C)CC2)CC1 the results were rRNA inh HTS 1.2, E coli growth 0.653, FGF22 binding inactive, Beta apoptosis 9.0, UCH37 inh 4.0, A1 inh 1.0, MLL AF4-AF9 inh 2.6, rRNA inh HTS OD600 -2.6 and rRNA inh HTS RFP 6.2.
Screening CC(c1nnnn1C1CCCCC1)N(Cc1ccccc1)Cc1cccnc1 (centres undefined) returned E coli growth 0.741, T cruzi inh 38.2, Beta apoptosis 1.1, UCH37 inh -2.6 and A1 inh -0.1.
Screening Cc1cc([N+](=O)[O-])nn1CC(=O)NCc1cccs1 returned E coli growth 0.787, T cruzi inh 9.6, Beta apoptosis -2.1, UCH37 inh 3.4 and A1 inh -0.2.
Screening COc1cc(C(=O)NCCSc2ccc(F)cc2)cc(OC)c1OC returned rRNA inh HTS 3.5, E coli growth 0.696, T cruzi inh -4.2, FGF22 binding inactive, Beta apoptosis -6.4, UCH37 inh 0.3, A1 inh 0.0, MLL AF4-AF9 inh -0.7, rRNA inh HTS OD600 6.0 and rRNA inh HTS RFP 6.0.
CC1CC(=O)N(CC(=O)Nc2ccc3c(c2)OCCO3)c2ccccc2S1 (centres undefined) was read as rRNA inh HTS 17.4, E coli growth 0.716, T cruzi inh -5.4, FGF22 binding inactive, Beta apoptosis -2.8, UCH37 inh 2.5, A1 inh 0.4, MLL AF4-AF9 inh 4.0, rRNA inh HTS OD600 5.6 and rRNA inh HTS RFP -7.3.
Cc1ccc(-c2cc(C(=O)N/N=C/C=C/c3ccccc3)n[nH]2)s1 was read as rRNA inh HTS -9.9, T cruzi inh 2.6, FGF22 binding inactive, Beta apoptosis 33.7, A1 inh 0.2, MLL AF4-AF9 inh 0.7, rRNA inh HTS OD600 -6.3 and rRNA inh HTS RFP -2.6.
CCC(C)(NC(=O)Cc1c[nH]c2ccccc12)C(=O)NC1CCCCC1 (centres undefined) was read as rRNA inh HTS 1.0, E coli growth 0.653, T cruzi inh 0.9, FGF22 binding inactive, Beta apoptosis 2.2, UCH37 inh 1.1, A1 inh -0.6, MLL AF4-AF9 inh 4.0, rRNA inh HTS OD600 10.2 and rRNA inh HTS RFP -0.4.
For CCN1CCN(C(=S)NC(=O)c2cc(OC)c(OC)c(OC)c2)CC1 the results were rRNA inh HTS 4.7, E coli growth 0.702, FGF22 binding inactive, Beta apoptosis -4.4, UCH37 inh -0.8, A1 inh -1.0, MLL AF4-AF9 inh -2.3, rRNA inh HTS OD600 7.2 and rRNA inh HTS RFP -4.0.
Screening CN1CCN(CC#CC2(O)CCCCC2)CC1 returned rRNA inh HTS 13.1, E coli growth 0.655, T cruzi inh -3.8, FGF22 binding inactive, Beta apoptosis -4.4, UCH37 inh 2.2, A1 inh -0.5, MLL AF4-AF9 inh 3.3, rRNA inh HTS OD600 8.7 and rRNA inh HTS RFP -4.2.
`O=C(O)c1ccc(S(=O)(=O)NC2CC2)cc1` gave rRNA inh HTS 7.6, E coli growth 0.678, T cruzi inh -1.6, FGF22 binding inactive, Beta apoptosis -1.7, UCH37 inh 1.7, A1 inh 0.5, MLL AF4-AF9 inh 7.0, rRNA inh HTS OD600 1.5 and rRNA inh HTS RFP -0.6.
Screening CCOCCOC(=O)c1[nH]c2c(c1C)C(=O)CC(c1cccs1)C2 (centres undefined) returned rRNA inh HTS 12.0, E coli growth 0.707, T cruzi inh 20.6, FGF22 binding inactive, Beta apoptosis 23.6, UCH37 inh 4.9, A1 inh 5.9*, MLL AF4-AF9 inh -0.2, rRNA inh HTS OD600 4.3 and rRNA inh HTS RFP 2.6.
COc1ccc(S(=O)(=O)N2CCN(C3CCCCCCC3)CC2)cc1 was read as rRNA inh HTS -0.7, E coli growth 0.666&0.75, T cruzi inh 2.9, FGF22 binding inactive, UCH37 inh 1.6&-0.9, A1 inh 0.4, MLL AF4-AF9 inh 2.2, rRNA inh HTS OD600 4.1 and rRNA inh HTS RFP 5.4.
For COc1ccc(C(=O)N2CCN(CCc3ccccn3)CC2)cc1 the results were rRNA inh HTS -0.9, E coli growth 0.66, T cruzi inh -7.8, FGF22 binding inactive, Beta apoptosis -3.3, UCH37 inh 0.7, A1 inh 0.2, MLL AF4-AF9 inh -8.6, rRNA inh HTS OD600 4.1 and rRNA inh HTS RFP -4.3.
`O=C(NCc1ccccc1Br)c1ccco1` gave E coli growth 0.733, T cruzi inh -2.5, Beta apoptosis -6.9, UCH37 inh 0.3 and A1 inh 0.5.
O=C(NC(=S)Nc1cnc2ccccc2c1)c1ccccc1 was read as rRNA inh HTS 6.0, E coli growth 0.656, T cruzi inh -1.4, FGF22 binding inactive, Beta apoptosis -6.2, UCH37 inh -1.1, A1 inh -5.2, MLL AF4-AF9 inh -2.1, rRNA inh HTS OD600 5.8 and rRNA inh HTS RFP 4.1.
C[C@H]1CN([C@@H](C)CO)C(=O)c2cccc(NC(=O)c3cnccn3)c2O[C@@H]1CN(C)C(=O)Nc1ccc2c(c1)OCO2 was read as rRNA inh HTS -0.2&3.7, FGF22 binding inactive, Beta apoptosis -8.8, UCH37 inh 1.4, A1 inh 2.7, MLL AF4-AF9 inh -2.5&-5.6, rRNA inh HTS OD600 -6.7&8.4 and rRNA inh HTS RFP -0.5&-3.7.
Screening NC(=O)c1cccc2cc3ccccc3cc12 returned rRNA inh HTS -4.0, E coli growth 0.638, T cruzi inh -7.3, FGF22 binding inactive, UCH37 inh -183.0, A1 inh 0.9, MLL AF4-AF9 inh 0.4, rRNA inh HTS OD600 -7.7 and rRNA inh HTS RFP -0.2.
For O=C(NCCCN1CCOCC1)C1CCC(=O)N1CCc1ccccc1 (centres undefined) the results were rRNA inh HTS 11.7, E coli growth 0.757, T cruzi inh -13.9, FGF22 binding inactive, UCH37 inh 2.4, A1 inh 0.1, MLL AF4-AF9 inh 5.9, rRNA inh HTS OD600 11.3 and rRNA inh HTS RFP 0.8.
COc1ccccc1C(=O)C1Nc2ccccc2-c2nnc(SC)nc2O1 (centres undefined) was read as E coli growth 0.643, T cruzi inh 7.7, Beta apoptosis -0.6 and UCH37 inh -2.6.
N/C(=N\N=C\c1cccc([N+](=O)[O-])c1)c1nonc1N was read as rRNA inh HTS 2.5, T cruzi inh -0.4, FGF22 binding inactive, A1 inh -3.1, MLL AF4-AF9 inh -1.4, rRNA inh HTS OD600 5.9 and rRNA inh HTS RFP -2.1.
`Cc1ccccc1NC(=S)N(CCN(C)C)C(C)c1cccnc1` (centres undefined) gave rRNA inh HTS 7.0, E coli growth 0.707, T cruzi inh 7.8, FGF22 binding inactive, Beta apoptosis 3.5, UCH37 inh 1.6, A1 inh 0.4, MLL AF4-AF9 inh 2.2, rRNA inh HTS OD600 2.8 and rRNA inh HTS RFP -2.9.
COc1ccc(C(=O)NC(=S)SCC(=O)O)cc1 was read as rRNA inh HTS 3.7, E coli growth 0.709, T cruzi inh -16.4, FGF22 binding inactive, Beta apoptosis -1.5, UCH37 inh 4.0, A1 inh 0.6, MLL AF4-AF9 inh -9.6, rRNA inh HTS OD600 2.9 and rRNA inh HTS RFP -2.6.
For N=c1n(CCOc2ccccc2)c2ccccc2n1CCN1CCOCC1 the results were E coli growth 0.788, T cruzi inh -8.1, Beta apoptosis 0.6, UCH37 inh 0.1 and A1 inh -0.3.
For CC(Sc1nc(-c2ccccc2)cc(C(F)(F)F)n1)C(=O)N1CCCC1 (centres undefined) the results were rRNA inh HTS -3.7, E coli growth 0.772, T cruzi inh -0.5, FGF22 binding inactive, Beta apoptosis -3.1, UCH37 inh 9.4, A1 inh -0.8, MLL AF4-AF9 inh 49.4*, rRNA inh HTS OD600 3.6 and rRNA inh HTS RFP -0.4.

Screening data as filed in PubChem.
